NS1 inh: qHTS Assay for Inhibitors of Influenza NS1 Protein Function | hit rate 0.4% among 270,000 | S. cerevisiae slowed by influenza A NS1, growth recovery by OD600 | Potency, µM (titrated, usually from 46.1 µM), for the others: at the highest dose activity, positive = more growth; active means well fitted rising curve with a large enough effect; inconclusive means small, poorly fitted or top-dose-only effect; inactive means no such curve, though single readings can be large or run the other way; further: nearly all actives have a fitted effect of over 50% in size
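S. cerevisiae expressing influenza A NS1, grown in glucose, washed, then diluted 1:100 into pH 6.0 -URA galactose medium with 23 nl compound. Growth recovery read as OD600; NS1-free strain serves as control.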
Marburg entry inh: qHTS for inhibitors of binding or entry into cells for Marburg Virus | Potency, µM (titrated, usually from 37.8 µM), for the others: at the top dose activity change, negative = inhibition, hits mostly inhibitors | hit rate 1.8% among 300,000 | Marburg virus pseudotyped entry inhibition, cell reporter; control for the full effect not named in the record; about a third of the inactives were read at about 46 µM; active = well fitted inhibition curve with a large enough effect; inconclusive = small, poorly fitted or top-dose-only effect, or effect the other way; inactive = flat fitted curve, though single readings scatter; tested in HEK293 cells; about a fifth of its hits are not listed in these tables; further: on the % scale 0 is the no-effect control and ±100 the full control effect; luciferase read-out
Cruzain inh noDet: qHTS Assay for Promiscuous and Specific Inhibitors of Cruzain (without detergent). purified cruzain, Z-FR-AMC fluorescence, no detergent. Potency, µM, without a hit: max response, negative = inhibition, most hits filed as inhibitors. hit rate 2.3% among 200,000;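 further: plate controls were enzyme without inhibitor for no effect and buffer without enzyme for full effect; nearly all actives have a fitted effect of over 40% in size; top concentration of the series not given in the record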
Target sequence (P25779 123-467 limits assumed): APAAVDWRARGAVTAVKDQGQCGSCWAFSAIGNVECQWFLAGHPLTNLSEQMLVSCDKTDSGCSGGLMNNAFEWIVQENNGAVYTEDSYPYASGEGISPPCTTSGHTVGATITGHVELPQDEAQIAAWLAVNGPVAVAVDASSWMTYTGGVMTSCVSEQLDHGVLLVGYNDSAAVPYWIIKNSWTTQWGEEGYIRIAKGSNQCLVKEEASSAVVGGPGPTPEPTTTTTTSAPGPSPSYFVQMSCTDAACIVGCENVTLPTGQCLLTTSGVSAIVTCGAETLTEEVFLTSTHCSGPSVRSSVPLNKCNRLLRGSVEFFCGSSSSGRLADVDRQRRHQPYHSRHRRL
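Detergent-free condition (0.00005% Triton X-100) in acetate buffer pH 5.5 with DTT. 1.5 nM enzyme and compound were pre-mixed 15 min, then 2 uM Z-FR-AMC substrate added; reaction progress from fluorescence change between first and third reads (60 s).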
RE007 growth inh: qHTS Assay for Inhibitors of the HIV-1 protein Vpr; S. pombe RE007 Vpr strain, BacTiter-Glo ATP luminescence, 24 h; control for the full effect not named in the record; Potency, µM (top dose mostly 92.2 µM), for inactives: at the top dose activity change, negative = less growth; hit rate 0.21% among 360,000; AID 651644, 2012; active = well fitted falling curve with a large enough effect; inconclusive = small, poorly fitted or top-dose-only effect; inactive = no such curve, though single readings can be large or run the other way;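 further: on the % scale 0 is the no-effect control and ±100 the full control effect; nearly all actives have a fitted effect of over 50% in size; the assay follows cell death caused by Vpr and the record does not say whether a fall means rescue or toxicity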
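Fission yeast strain RE007, carrying one chromosomally integrated HIV-1 vpr copy, was seeded at OD 0.01 in PMG+AL medium with 23 nL pinned compound. After 24 h at 30 °C and 99% humidity, viability was read by BacTiter-Glo luminescence.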
2A StopGo: High Throughput Screening for Foot and Mouth Disease Virus Antivirals. Potency, µM (doses to about 57.9 µM), inactives show top-dose signal change, negative = less light. human cells with a luciferase reporter of 2A StopGo recoding; control for the full effect not named in the record. hit rate 1.2% among 410,000. AID 1159524, 2015; active = well fitted falling curve with a large enough effect; inconclusive = small, poorly fitted or top-dose-only effect; inactive = no such curve, though single readings can be large or run the other way; tested in HEK293T cells; further: on the % scale 0 is the no-effect control and ±100 the full control effect; nearly all actives have a fitted effect of over 45% in size; luciferase light after 4 h
SARS PLpro yeast: qHTS of Yeast-based Assay for SARS-CoV PLP. S. cerevisiae expressing SARS-CoV PLpro, growth rescue; control for the full effect not named in the record. Potency, µM (top dose mostly 32.9 µM), inactives show at the top dose activity, positive = growth rescue. hit rate 0.19% among 330,000; active means well fitted rising curve with a large enough effect; inconclusive means small, poorly fitted or top-dose-only effect; inactive means no such curve, though single readings can be large or run the other way; further: 0% is about no effect; nearly all actives have a fitted effect of over 55% in size; growth read by luminescence after 48 h
Cruzain Triton: qHTS Assay for Promiscuous and Specific Inhibitors of Cruzain (with detergent) | Cruzipain (Trypanosoma cruzi), P25779 | purified cruzain, Z-FR-AMC fluorescence, 0.01% Triton | Potency, µM, for the others: max response, negative = inhibition, usual class: inhibitors | hit rate 0.43% among 200,000 | AID 1478, 2009;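 further: plate controls were neutral wells for no effect and buffer without enzyme for full effect; nearly all actives have a fitted effect of over 40% in size; top concentration of the series not given in the record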
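15 min RT preincubation of 1.5 nM cruzain with compound, then 2 uM Z-FR-AMC added; kinetic AMC fluorescence, 60 s delta. Triton X-100 0.01%, pH 5.5.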
LASV entry inh: qHTS for Inhibitors of binding or entry into cells for Lassa Virus; Potency, µM (titrated, usually from 37.9 µM), inactives show top-dose activity change, negative = inhibition, usual class: inhibitors; Lassa virus pseudotype entry inhibition, cell reporter; control for the full effect not named in the record; hit rate 1.2% among 300,000; active means well fitted inhibition curve with a large enough effect; inconclusive means small, poorly fitted or top-dose-only effect, or effect the other way; inactive means flat fitted curve, though single readings scatter; tested in HEK293 cells; further: on the % scale 0 is the no-effect control and ±100 the full control effect; nearly all actives have a fitted effect of over 50% in size; luciferase read-out
* marks the source's active call; other numbers are inactive results; ? = inconclusive; . = not tested or not shown; & = joins results of further samples; [ ] = another dose, or the depositor's remark. Unless noted, the call rests on the fitted dose curve; in most records, active means well fitted curve in the direction sought with a large enough effect; inconclusive means small, poorly fitted or top-dose-only effect, or another doubt; inactive means no such curve, though single readings can be large; an effect the other way counts as inactive or inconclusive. Potency means the concentration at half of the fitted maximal effect.

A first look:
SMILES	NS1 inh	Marburg entry inh	Cruzain inh noDet	RE007 growth inh	2A StopGo	SARS PLpro yeast	Cruzain Triton	LASV entry inh
Cc1ccc(Sc2ccc(NC(=O)CCl)cc2)cc1C	-46%	?	-5%	?	28µM*	-29%	-6.0%	?
O=C(c1cccnc1)N1CCN(C(=O)c2ccccc2F)CC1	1%	-5%	-2%	1%	0%	0%	-1.2%	-1%
Cc1c(Cl)cccc1N=c1c([N+](=O)[O-])nn(-c2ccccc2)n1O	15%	-1%	20µM*	6%	-16%	4%	1.8%	13%
CCOC(=O)c1cc(=O)n(-c2ccc(Cl)cc2C)[nH]1	?	16%	12%	7%	-28%	?	1.9%	6%
CC(=O)Oc1ccc(-n2c(=O)c3ccccc3c3ccccc3c2=O)cc1	2%	-15%	.	9%	?	0%	.	-3%[46.1 µM]
O=C(O)c1ccccc1SCC(=O)N1CCCCC1	14%	16%	4%	9%	20%	11%	3.8%	-2%
CCN1CCN(Cc2c(O)ccc3oc(C)c(C(=O)Nc4ccc(OC)c(Cl)c4)c23)CC1	.	?	-21%	.	-27%	.	-4.0%	?
COc1ccc(-n2c(Cc3cccn3C)nnc2SCC(=O)N2CCCc3ccccc32)cc1	?	-4%&-7%	?	5%	21%	-17%	-0.4%	22%[14.3 µM]

The list itself, from the first entry:
SMILES	NS1 inh	Marburg entry inh	Cruzain inh noDet	RE007 growth inh	2A StopGo	SARS PLpro yeast	Cruzain Triton	LASV entry inh
Cc1ccc(Sc2ccc(NC(=O)CCl)cc2)cc1C	-46%	?	-5%	?	28µM*	-29%	-6.0%	?
O=C(c1cccnc1)N1CCN(C(=O)c2ccccc2F)CC1	1%	-5%	-2%	1%	0%	0%	-1.2%	-1%
Cc1c(Cl)cccc1N=c1c([N+](=O)[O-])nn(-c2ccccc2)n1O	15%	-1%	20µM*	6%	-16%	4%	1.8%	13%
CCOC(=O)c1cc(=O)n(-c2ccc(Cl)cc2C)[nH]1	?	16%	12%	7%	-28%	?	1.9%	6%
CC(=O)Oc1ccc(-n2c(=O)c3ccccc3c3ccccc3c2=O)cc1	2%	-15%	.	9%	?	0%	.	-3%[46.1 µM]
O=C(O)c1ccccc1SCC(=O)N1CCCCC1	14%	16%	4%	9%	20%	11%	3.8%	-2%
CCN1CCN(Cc2c(O)ccc3oc(C)c(C(=O)Nc4ccc(OC)c(Cl)c4)c23)CC1	.	?	-21%	.	-27%	.	-4.0%	?
COc1ccc(-n2c(Cc3cccn3C)nnc2SCC(=O)N2CCCc3ccccc32)cc1	?	-4%&-7%	?	5%	21%	-17%	-0.4%	22%[14.3 µM]
Cc1ccc(Cn2c(C(=O)NCc3ccccc3Cl)cc3sccc32)cc1	.	-3%[46.1 µM]	?	.	-3%	.	-15%	24%[46.1 µM]
CC(C)c1nnc(NC(=O)C2CCN(C(=O)c3ccco3)CC2)s1	1%	14%&14%[46.1 µM]	.	-8%	4%	1%	.	-1%[46.1 µM]
CCOC(=O)CN(C(=O)CSc1nnc(-c2ccc(OC)c(OC)c2)o1)c1ccccc1	-10%	-8%&-8%	?	-3%	-22%	1%	-0.8%	-9%
Cc1cccc(NC(=O)CSc2nnc(Cn3nnc(-c4ccccc4)n3)n2-c2ccccc2)c1	1%	-20%&-20%	-5%	-15%	3%	-16%	-2.7%	-7%
CCCOC(=O)Oc1ccc2c(=O)c(Oc3cc(C)cc(C)c3)coc2c1	-29%	-18%	-4%	0%	-14%	-24%	-6.5%	3%
Brc1cccc(CNCc2cccs2)c1	4%	12%	1%	.	20%	5%	-1.4%	?
COc1ccc(N2CCN(c3nc(-c4ccccc4F)nc4ccccc34)CC2)cc1	.	.	-1%	.	?	.	-2.9%	0%[46.1 µM]
Cc1ccc(NC(=O)/C(C#N)=C/c2cc(C)n(-c3ccc(Br)cc3)c2C)cc1C	.	.	7%	.	?	.	-2.2%	10%[46.1 µM]
COc1cc(CN2CCC(CO)(CCOc3ccccc3)CC2)cc(OC)c1	-4%	.	.	-5%	5%	-1%	.	.
N#CC1(NC(=O)CSc2nnc(-c3ccccc3F)n2N)CCCCC1	.	4%[46.1 µM]	.	5%	5%	3%	.	-11%
CN(C)/C=C/C1=C([N+](=O)[O-])C(c2cccc([N+](=O)[O-])c2)NC(=O)N1 (stereo not drawn)	8%	-11%[46.1 µM]	.	20%	-7%	1%	.	21%
CCOc1ccc(-c2nc(SCC(=O)NCCOC)c(-c3ccc(OC)c(OC)c3)[nH]2)cc1	.	-12%[46.1 µM]	?	.	-23%	.	-14%	7%[46.1 µM]
COc1ccccc1C(=O)Nc1ccnn1C1CCN(Cc2ccccc2OCCO)CC1	12%	-12%	.	6%	-16%	5%	.	1%
CCC[C@H](CN[C@@H](CNC)[C@H](C)CC)NCCc1cc(C(F)(F)F)cc(C(F)(F)F)c1	-4%	.	.	20%	?	-9%	.	.
Cc1ccc(NC(=O)C2CC(=O)N/C(=N/N=C/c3ccco3)S2)cc1 (stereo not drawn)	-3%	-7%	?	2%	-14%	6%	-1.8%	-15%
Cn1c(SCC(=O)C(C)(C)C)nnc1-c1ccccn1	1%	3%	-6%	2%[3.69 µM]	4%	11%	-1.0%	-3%
COc1ccc(NC(=O)CCCNC(=O)Cn2cnc3sc(C)c(C)c3c2=O)cc1Cl	-1%	-3%	.	-10%	25%	10%	.	2%

Other entries
SMILES	NS1 inh	Marburg entry inh	Cruzain inh noDet	RE007 growth inh	2A StopGo	SARS PLpro yeast	Cruzain Triton	LASV entry inh
COc1ccc(C2=CC(c3cccc(OC)c3)n3nnnc3N2)cc1 (stereo not drawn)	?	-14%[46.1 µM]	-1%	-9%	1%	-3%	-9.4%	-3%
COCCN1C=C(C(=O)OC)C(c2ccccc2Cl)C(C(=O)OC)=C1	.	?	.	-6%	-17%	-7%	.	-6%
COc1ccc(CCNC(=O)C(=O)NCC(c2ccco2)S(=O)(=O)c2ccccc2)cc1 (stereo not drawn)	.	.	6%	.	-24%	.	1.0%	0%[46.1 µM]
O=C(COC(=O)c1cc([N+](=O)[O-])ccc1N1CCOCC1)c1ccccc1Cl	-13%	-3%[46.1 µM]	.	-2%	-23%	19%	.	-18%[46.1 µM]
Cc1cc(O)c(-c2ccno2)cc1Cl	-8%	-4%	-27%	-7%	0%	-23%	-4.0%	?
CCOc1ccc(OCC)c(NC(=O)C(NS(=O)(=O)c2ccc(Br)s2)c2ccccc2)c1 (stereo not drawn)	.	-6%[46.1 µM]	10µM*	.	9%	.	-1.1%	-6%[46.1 µM]
CC(C)(C)c1ccc(C(=O)N2CCCCC2CCN2CCCCC2)cc1 (stereo not drawn)	.	?	-3%	.	-13%	.	1.0%	-24%[46.1 µM]
O=C(Nc1ccc(S(=O)(=O)Nc2nccs2)cc1)C1CC(=O)N(c2ccc(Cl)cc2)C1 (stereo not drawn)	-1%	2%[46.1 µM]	.	-15%	16%	1%	.	.
CCc1cccc(CC)c1N(COC)C(=O)Cn1c(C)nc2ccccc21	.	.	14%	.	10µM*	.	-4.3%	-18%[46.1 µM]
COc1ccc2o/c(=N\O)c(C(=O)Nc3ccccc3OC)cc2c1	-9%	-3%&-3%	-16%	10%	3%	-5%	2.7%	-1%
O=C(Cc1ccccc1)Nc1ccc(NC(=O)c2ccc(Br)cc2)cc1	-1%	8%	.	27%	-3%	-1%	.	11%
CCOC(=O)c1[nH]c(C)c(C(=O)N2CCN(C(=O)c3ccco3)CC2)c1C	8%	-7%	12%	2%	16%	-4%	1.8%	28%[14.3 µM]
O=C(CN1c2ccccc2S(=O)(=O)c2ccccc21)Nc1ccccc1F	10%	2%[46.1 µM]	.	7%	0%	-4%	.	-14%[46.1 µM]
Cn1c(SCC(=O)NC(=O)Nc2ccccc2)nnc1-c1ccncc1	1%	21%[46.1 µM]	.	5%	17%	1%	.	10%[46.1 µM]
Cc1cc(C(=O)NCc2ccccc2Cl)n(-c2ccccc2)n1	-6%	.	.	-11%	-15%	-1%	.	.
CC(C)CN(C(=O)C1CCCO1)C1CCS(=O)(=O)C1 (stereo not drawn)	.	0%[46.1 µM]	.	-3%	-15%	-3%	.	24%
Cc1ccc(Nc2nnc(-c3ccncc3)s2)c(Br)c1	-40%	25%	9%	9%	7%	-91%	-11%	0%
CCOC(=O)c1cc2c(C(F)(F)F)cc(-c3cccnc3)nc2o1	-4%	-2%	-4%	4%	0%	0%	4.1%	-14%
COc1cccc(OCCSc2nc(C)c(Cc3ccccc3)c(=O)[nH]2)c1	.	-3%&0%[46.1 µM]	-17%	-10%	6%&-20%	-1%	-2.3%	-23%&-11%[46.1 µM]
O=C(N/N=C/c1cccs1)c1n[nH]c2c1CCCC2	0%	?	.	-9%	-23%	-3%	.	2.2µM*
Cc1cccc(-n2c(Cc3ccccc3)nnc2SCC(=O)N2CCOCC2)c1	-10%	-22%[46.1 µM]	11%	-5%	36%[activator]	4%	0.2%	-10%
N#C/C(=C/c1ccc(N2CCCCCC2)o1)c1ccc(F)cc1	?	10µM*	.	?	-17%	.	.	?
COc1cc(/C=N/NC(=O)c2cccc(NC(=O)c3ccccc3)c2)ccc1O	-7%	6%[46.1 µM]	.	-4%	4%	1%	.	20%

The order is random; overall some 4.5% were active at least once.
